Rango dissoc inh = inhibition of RanGTP-driven Rango-importin beta dissociation | O95149+P62826 | Biochemical FRET Rango-importin beta, RanGTP-induced dissociation | Potency, µM (doses to about 46.1 µM), for inactives: at the top dose activity change, negative = inhibition | 340,000 tested, 0.071% active | AID 540253; active means falling FRET ratio curve, often poorly fitted, with flat reads before Ran was added; inconclusive means other falling curves, or compound fluorescence or quenching; inactive means flat or rising ratio curve;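 note: potency is the fitted concentration of half-maximal effect; % of control where 0% means no effect; nearly all actives have a fitted effect of over 45% in size; -100% = wells without RanGTP and RCC1; the record marks most hits as doubtful in a second field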
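Compounds sat 5 min at room temperature with 0.1 uM Rango biosensor plus 0.25 uM importin beta, then FRET pre-read. RanGTP-RCC1 (0.6 uM Ran, 2mM GTP, 0.2 uM RCC1) added for 45 min, and the CFP/YFP post-read measured blocked complex dissociation.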
miR-21 FLuc = raises the signal of a miR-21 reporter | HeLa miR-21 FLuc reporter, luciferase, 48 h | Potency, µM (titrated, usually from 38.3 µM), inactives show top-dose reporter change, positive = more light | 340,000 tested, under 10 active | AID 2288; active = well fitted rising curve with a large enough effect; inconclusive = small, poorly fitted or top-dose-only effect; inactive = no such curve, though single readings can be large or run the other way;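 note: % of control where 0% means no effect; miR-21 action dims this reporter so a rising signal means less miR-21 action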
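Using DMEM plus 10% FBS, HeLa miR-21-FLuc cells are incubated with test compounds (final up to about 40uM) for 48 hours; firefly luciferase signal is then imaged following reagent-mediated lysis.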
Rango-impB inh = prevents formation of the Rango-importin beta complex. Rango CFP/YFP FRET sensor + importin beta, 45 min. Potency, µM (doses to about 92.2 µM), without a hit: at the highest dose inhibition of complex formation. AID 540263. Q14974. 340,000 tested, 0.031% active; active = rising FRET ratio curve, often small or poorly fitted; inconclusive = mostly compound fluorescence or quenching in the first reads; inactive = flat curves in all reads;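 note: potency is the fitted concentration of half-maximal effect; 0% = DMSO wells and 100% = buffer wells lacking importin beta; nearly all actives have a fitted effect of over 15% in size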
Target sequence (Q14974 whole entry, looked up): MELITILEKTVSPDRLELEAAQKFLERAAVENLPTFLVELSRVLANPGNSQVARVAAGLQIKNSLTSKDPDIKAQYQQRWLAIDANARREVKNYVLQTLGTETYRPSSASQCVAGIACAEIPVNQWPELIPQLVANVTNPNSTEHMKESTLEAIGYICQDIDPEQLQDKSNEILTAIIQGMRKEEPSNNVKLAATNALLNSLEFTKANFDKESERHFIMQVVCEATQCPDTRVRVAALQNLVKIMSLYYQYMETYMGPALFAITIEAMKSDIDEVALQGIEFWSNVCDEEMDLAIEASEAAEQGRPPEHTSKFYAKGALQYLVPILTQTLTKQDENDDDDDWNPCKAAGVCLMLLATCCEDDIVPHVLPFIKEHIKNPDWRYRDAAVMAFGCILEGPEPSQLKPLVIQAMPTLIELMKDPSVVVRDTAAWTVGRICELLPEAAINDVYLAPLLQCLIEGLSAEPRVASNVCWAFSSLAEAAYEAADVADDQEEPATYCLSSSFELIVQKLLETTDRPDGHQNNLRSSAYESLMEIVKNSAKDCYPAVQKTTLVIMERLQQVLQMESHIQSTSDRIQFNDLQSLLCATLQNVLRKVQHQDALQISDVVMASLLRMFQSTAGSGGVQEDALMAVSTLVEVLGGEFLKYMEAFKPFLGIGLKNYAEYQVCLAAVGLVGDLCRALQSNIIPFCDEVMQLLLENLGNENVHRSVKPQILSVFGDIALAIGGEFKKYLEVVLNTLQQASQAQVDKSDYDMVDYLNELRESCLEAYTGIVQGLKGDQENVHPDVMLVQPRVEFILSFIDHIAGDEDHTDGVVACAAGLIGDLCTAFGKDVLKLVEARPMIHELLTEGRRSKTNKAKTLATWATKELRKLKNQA
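FRET biosensor Rango (snurportin 1 IBB between N-terminal EYFP and C-terminal Cerulean), 50 nM in PBS/1 mM DTT/0.02% Tween-20/0.1% BSA, preincubated 5 min RT with compound; 0.125 microM importin beta added, 45 min RT, CFP/YFP FRET ratio read.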
GLA inh pH 4.5 = alpha-galactosidase A (human) inhibition, pH 4.5; activity change, negative = inhibition, % at 105 µM; AID 1467; purified enzyme, 4-MU-alpha-Gal fluorescence, pH 4.5; 230,000 tested, under 10 active; inconclusive = small, poorly fitted or top-dose-only inhibition, or a rising curve; inactive = flat fitted curve, though single readings scatter; no compound was filed as active;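 note: 0% = full activity with enzyme and -100% = basal without enzyme; dose as in the result columns while the protocol names 77 µM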
Starred values were filed as active, the others as inactive; & = joins results of further samples. The list is partial. The share of hits here may be higher or lower than overall.

Cc1ccc(S(=O)(=O)N2CCOCC2)cc1NC(=O)COC(=O)c1cnccn1 was read as Rango dissoc inh 8.5% and Rango-impB inh 1.0%.
`CCc1cc2c3c([nH]c2cc1S(=O)(=O)NCCCOC)CC(C)(C)CC3=O` gave Rango dissoc inh -6.7%, miR-21 FLuc 1.8% and Rango-impB inh -1.7%.
CCOc1ccccc1-n1c(SCC(N)=O)nnc1-c1ccccc1 was read as Rango dissoc inh -0.6%, miR-21 FLuc -0.2%, Rango-impB inh -1.1% and GLA inh pH 4.5 5.6.
Screening Brc1ccccc1OCCCN1CCCCCC1 returned Rango dissoc inh 7.8%, miR-21 FLuc -6.3%, Rango-impB inh 0.3% and GLA inh pH 4.5 0.7.
Screening O=C1N(c2ccccc2)CCN1c1ccccc1 returned Rango dissoc inh -7.6%, miR-21 FLuc -56.6% and Rango-impB inh -0.2%.
Screening O=C(CNC(=O)/C(=C\c1ccccc1)NC(=O)c1ccc(Br)cc1)OCc1ccccc1 returned Rango dissoc inh -8.6%, miR-21 FLuc -0.7%, Rango-impB inh -1.0% and GLA inh pH 4.5 -15.5.
Screening CCCN(CC(=O)Nc1ccccc1C)C(=O)c1ccc(N2CCCC(C)C2)c([N+](=O)[O-])c1 (centres undefined) returned Rango dissoc inh -6.5% and Rango-impB inh -4.6%.
`CC(C)CN(C(=O)COC(=O)CNC(=O)c1ccccc1)c1c(N)n(Cc2ccccc2)c(=O)[nH]c1=O` gave Rango dissoc inh -5.2% and Rango-impB inh 0.2%.
O=C(C[n+]1ccccc1)N/N=C/c1ccc(Cl)cc1 was read as Rango dissoc inh 11.0% and Rango-impB inh 1.8%.
For COc1cccc(-c2ccc(NC(=O)C3CCCN(Cc4ccco4)C3)cc2)c1 (centres undefined) the results were Rango dissoc inh -17.5% and Rango-impB inh inconclusive.
Screening CC(C)Oc1ccc(C(=O)Nc2ncn[nH]2)cc1 returned Rango dissoc inh 4.7%, miR-21 FLuc -19.0% and Rango-impB inh -0.7%.
O=C(N/N=C/c1sc(N2CCOCC2)nc1-c1ccccc1)c1ccc(O)cc1 was read as Rango dissoc inh inconclusive, miR-21 FLuc 0.2%, Rango-impB inh inconclusive and GLA inh pH 4.5 -8.3.
`CCNC(=S)Nc1ccc(-c2nc3ccccc3[nH]2)cc1` gave Rango dissoc inh -12.1%, miR-21 FLuc -32.0%, Rango-impB inh -0.8% and GLA inh pH 4.5 -3.8.
For Cc1occc1-c1nnc(SCC(=O)Nc2ccccc2)n1Cc1ccccc1 the results were Rango dissoc inh 6.2%, miR-21 FLuc 7.2%, Rango-impB inh 0.8% and GLA inh pH 4.5 -1.9.
`CC(=O)c1ccc(NC(=O)c2ccc(N3C(=O)c4cccnc4C3=O)cc2)cc1` gave Rango dissoc inh 1.0%, miR-21 FLuc -15.3% and Rango-impB inh inconclusive.
For Cc1ccc2[nH]c(=O)c(C(c3nnnn3C3CCCC3)N(Cc3cccnc3)Cc3ccco3)cc2c1 (centres undefined) the results were Rango dissoc inh -5.6%, miR-21 FLuc 1.5%, Rango-impB inh -2.7% and GLA inh pH 4.5 -5.3.
For COC(c1ccccc1)c1nnc(CCC(=O)NCCc2ccc(Cl)cc2)o1 (centres undefined) the results were Rango dissoc inh 2.4%, miR-21 FLuc 0.5% and Rango-impB inh -0.7%.
`O=S(=O)(NCCc1csc(-c2cccnc2)n1)c1cccc(F)c1` gave Rango dissoc inh 4.2%, miR-21 FLuc -5.6% and Rango-impB inh -3.7%.
`CN(C)CCNc1oc(-c2cccc(Cl)c2)nc1C#N` gave Rango dissoc inh -0.9%, miR-21 FLuc 0.0%, Rango-impB inh 3.0% and GLA inh pH 4.5 -0.2.
O=C(NCCc1ccccc1)c1ccc(OCCOc2ccccc2)cc1 was read as Rango dissoc inh -1.8%, miR-21 FLuc -8.8%, Rango-impB inh 3.7% and GLA inh pH 4.5 -1.2.
For Nc1ncccc1C(=O)OCC(=O)N1CCN(S(=O)(=O)c2ccc(Cl)cc2)CC1 the results were Rango dissoc inh 10.7% and Rango-impB inh -0.2%.
O=C(NC(=S)NCC1CCCO1)c1ccc([N+](=O)[O-])cc1 (centres undefined) was read as Rango dissoc inh -8.6%, miR-21 FLuc 0.7%, Rango-impB inh -0.1% and GLA inh pH 4.5 -8.2.
O=C(NNC(=S)Nc1ccccc1)c1ccc2ncccc2c1 was read as Rango dissoc inh 0.5%, miR-21 FLuc -67.1%, Rango-impB inh -1.1% and GLA inh pH 4.5 -3.3.
For O=C(NC(=O)c1cc(OCC(F)(F)F)ccc1OCC(F)(F)F)Nc1ccccc1 the results were Rango dissoc inh -19.0%, miR-21 FLuc -17.8%, Rango-impB inh 1.5% and GLA inh pH 4.5 -15.8.
For COc1ccccc1NC(=O)NNC(=O)c1ccc(-c2ccccc2)cc1 the results were Rango dissoc inh -5.0%, miR-21 FLuc -1.8% and Rango-impB inh 5.1%.
For O=C(CSc1nnnn1-c1cccc(C(=O)O)c1)NC(c1ccccc1)c1ccccc1 the results were Rango dissoc inh 8.1%, miR-21 FLuc -1.2%, Rango-impB inh -2.2% and GLA inh pH 4.5 3.9.
`CC(NC(=O)c1cc(COc2c(F)cccc2F)on1)c1cnn(-c2ccccc2)c1` (centres undefined) gave Rango dissoc inh 21.5%, miR-21 FLuc -53.2%, Rango-impB inh -2.4% and GLA inh pH 4.5 -7.9.
CCCCCC(=O)Nc1cc(S(=O)(=O)N2CCOCC2)ccc1Oc1ccc(OCC)cc1 was read as Rango dissoc inh -5.1% and Rango-impB inh -1.4%.
Screening C=CCn1c(Br)nc2c1c(=O)[nH]c(=O)n2C returned Rango dissoc inh -2.4%, miR-21 FLuc -1.9%, Rango-impB inh -3.1% and GLA inh pH 4.5 -2.1.
Cc1nn(Cc2ccccc2)c(Cl)c1C(=O)OC1CCOC1=O (centres undefined) was read as Rango dissoc inh 13.3%, miR-21 FLuc -8.8%, Rango-impB inh -1.6% and GLA inh pH 4.5 -0.8.
Screening CSc1nnc(NC(=O)C23CC4CC(CC(C4)C2)C3)s1 returned Rango dissoc inh 5.5%, miR-21 FLuc -28.5% and Rango-impB inh -0.5%.
For Cc1ccc(CSc2nc3c(c(SCC(=O)O)n2)CCCC3)cc1 the results were Rango dissoc inh 10.2%, miR-21 FLuc -6.6%, Rango-impB inh 1.3% and GLA inh pH 4.5 -11.1.
Screening N#Cc1nc(N2CCCC2)nc(N2CCCC2)n1 returned Rango dissoc inh -4.3%, miR-21 FLuc 12.7%, Rango-impB inh 0.0% and GLA inh pH 4.5 -13.5.
For Cc1cc(C)n(-c2ccc3cccc(NS(C)(=O)=O)c3n2)n1 the results were Rango dissoc inh 0.9%, miR-21 FLuc -3.0%, Rango-impB inh 2.5% and GLA inh pH 4.5 -16.8.
Screening CCc1ccc(/C=N/NC(=O)c2ccc(OC3CCCC3)cc2)s1 returned Rango dissoc inh 9.4%, miR-21 FLuc 1.3%, Rango-impB inh -3.1% and GLA inh pH 4.5 4.4.
CCn1nc(NS(=O)(=O)c2ccc(NC(C)=O)cc2)c2cc3cccc(C)c3nc21 was read as Rango dissoc inh -29.3%, miR-21 FLuc -5.8% and Rango-impB inh inconclusive.
CN(CC(=O)Nc1ccc(OC(F)(F)F)cc1)C(=O)Cc1c(Cl)cccc1Cl was read as Rango dissoc inh 0.5%, miR-21 FLuc 13.2% and Rango-impB inh 0.1%.
For Cc1cccc(N2CCN(C(=O)c3c(-c4ccccc4)noc3C)CC2)c1C the results were Rango dissoc inh -2.9%, miR-21 FLuc 14.1% and Rango-impB inh 0.2%.
Screening CCn1c(SCC(=O)NCC2CCCO2)nc2cc(S(=O)(=O)N3CCCCC3)ccc21 (centres undefined) returned Rango dissoc inh 2.3%, miR-21 FLuc -7.3%, Rango-impB inh 2.9% and GLA inh pH 4.5 11.8.
Screening Cc1sc(Cc2nc(O)cs2)nc1-c1ccccc1 returned Rango dissoc inh 0.2%, miR-21 FLuc -8.5%, Rango-impB inh -2.0% and GLA inh pH 4.5 2.2.
`COC(=O)C1=C(C)NC(=S)NC1/C=C/c1ccccc1` (centres undefined) gave Rango dissoc inh -7.5%, miR-21 FLuc 6.1%, Rango-impB inh -1.9% and GLA inh pH 4.5 -7.3.
For C1=C(CCNCC2CCCCC2)CCCC1 the results were Rango dissoc inh 18.0%, miR-21 FLuc -4.8%, Rango-impB inh -0.3% and GLA inh pH 4.5 5.7.
For CC(C)N(Cc1cnn(C)c1)Cc1nc(COc2ccccc2)no1 the results were Rango dissoc inh 4.2%, miR-21 FLuc -4.9%, Rango-impB inh 1.0% and GLA inh pH 4.5 -18.8.
COc1cc(C(=O)OCC(=O)NCC2CCCO2)cc(OC)c1OC (centres undefined) was read as Rango dissoc inh 0.6% and Rango-impB inh -2.8%.
For CCOC(=O)NC(NCCc1ccccc1)(C(F)(F)F)C(F)(F)F the results were Rango dissoc inh 0.7%, miR-21 FLuc -2.3%, Rango-impB inh -1.2% and GLA inh pH 4.5 3.3.
For CC(C)NC(=O)N(C)C[C@H]1Oc2c(NC(=O)Nc3ccccc3)cccc2C(=O)N([C@H](C)CO)C[C@@H]1C the results were Rango dissoc inh 1.0% and Rango-impB inh 0.9%.
CCSc1nc2sc3c(c2c(=O)[nH]1)CC(C)(C)OC3 was read as Rango dissoc inh -3.5%, miR-21 FLuc -8.0% and Rango-impB inh 0.4%.
Screening COc1ccc(OC)c(NC(=O)CC2SC(=Nc3ccc(F)cc3)N(CCC3=CCCCC3)C2=O)c1 (centres undefined) returned Rango dissoc inh 10.7%, miR-21 FLuc -0.1%, Rango-impB inh 1.3% and GLA inh pH 4.5 -8.1.
`CCNC(=O)c1ccc(=O)n(Cc2ccc(Cl)cc2Cl)c1` gave Rango dissoc inh 16.9% and Rango-impB inh -0.2%.
For CCN(C(=O)COC(=O)CCc1ccccc1OC)c1c(N)n(Cc2ccccc2)c(=O)[nH]c1=O the results were Rango dissoc inh -3.4% and Rango-impB inh -0.1%.
Screening Cc1c(NC(=S)N/C(=N/S(=O)(=O)c2ccc(Cl)cc2)c2ccccc2)c(=O)n(-c2ccccc2)n1C returned Rango dissoc inh 26.3%, miR-21 FLuc 6.9%, Rango-impB inh -0.4% and GLA inh pH 4.5 0.0.
For Cc1cccc(Cc2c(C)nc3c(C(=O)NCc4ccco4)cnn3c2C)c1 the results were Rango dissoc inh 4.3%, miR-21 FLuc 19.3%, Rango-impB inh inconclusive and GLA inh pH 4.5 -6.9.
`Fc1ccc(-c2nnc(-c3ccc(Cl)cc3)o2)cc1` gave Rango dissoc inh 5.2%, miR-21 FLuc -49.3%, Rango-impB inh 0.9% and GLA inh pH 4.5 7.5.
Screening O=C(Cn1cnc2c(NCc3ccccc3)ncnc21)NCc1ccc2[nH]ccc2c1 returned Rango dissoc inh -0.5% and Rango-impB inh inconclusive.
`CCN(CC(=O)Nc1ccccc1C(F)(F)F)C(=O)Cc1sc(C)nc1-c1ccc(F)cc1` gave Rango dissoc inh -2.8% and Rango-impB inh 4.9%.
CCCCn1c(N)c(N(CC(C)C)C(=O)CCS(=O)(=O)c2ccc(C)cc2)c(=O)[nH]c1=O was read as Rango dissoc inh -3.1% and Rango-impB inh inconclusive.
`CN1CCSc2ccc(C(=O)NCc3ccccc3F)cc21` gave Rango dissoc inh -5.7%, miR-21 FLuc -44.4%&-5.5% and Rango-impB inh -3.1%.
`CCc1nnc(NC(=O)CN2CCN(S(C)(=O)=O)CC2)s1` gave Rango dissoc inh -4.2%, miR-21 FLuc 0.0% and Rango-impB inh -0.9%.

Compound activity deposited in PubChem BioAssay by National Center for Advancing Translational Sciences (NCATS).
